KCNQ2 pot – KCNQ2 (rat) channel potentiation. O88943. CHO-K1 KCNQ2, FluxOR thallium flux fluorescence; active compounds read high. B-score at 10 µM. 310,000 compounds, 0.54% hits;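 active means fluorescence ratio B-score at least 3 SD of library B-scores, with initial fluorescence B-score within 3 SD, cut at about 5.3 in these data; same plate scores as AID 2156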;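 further: B-score of peak minus minimum over baseline fluorescence ratio after K+ and Tl+ stimulus; positive B-score means potentiation of KCNQ2 with more thallium influx and brighter signal; only the inactives scoring about 0 or higher are listed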
Target sequence (O88943 whole entry, looked up): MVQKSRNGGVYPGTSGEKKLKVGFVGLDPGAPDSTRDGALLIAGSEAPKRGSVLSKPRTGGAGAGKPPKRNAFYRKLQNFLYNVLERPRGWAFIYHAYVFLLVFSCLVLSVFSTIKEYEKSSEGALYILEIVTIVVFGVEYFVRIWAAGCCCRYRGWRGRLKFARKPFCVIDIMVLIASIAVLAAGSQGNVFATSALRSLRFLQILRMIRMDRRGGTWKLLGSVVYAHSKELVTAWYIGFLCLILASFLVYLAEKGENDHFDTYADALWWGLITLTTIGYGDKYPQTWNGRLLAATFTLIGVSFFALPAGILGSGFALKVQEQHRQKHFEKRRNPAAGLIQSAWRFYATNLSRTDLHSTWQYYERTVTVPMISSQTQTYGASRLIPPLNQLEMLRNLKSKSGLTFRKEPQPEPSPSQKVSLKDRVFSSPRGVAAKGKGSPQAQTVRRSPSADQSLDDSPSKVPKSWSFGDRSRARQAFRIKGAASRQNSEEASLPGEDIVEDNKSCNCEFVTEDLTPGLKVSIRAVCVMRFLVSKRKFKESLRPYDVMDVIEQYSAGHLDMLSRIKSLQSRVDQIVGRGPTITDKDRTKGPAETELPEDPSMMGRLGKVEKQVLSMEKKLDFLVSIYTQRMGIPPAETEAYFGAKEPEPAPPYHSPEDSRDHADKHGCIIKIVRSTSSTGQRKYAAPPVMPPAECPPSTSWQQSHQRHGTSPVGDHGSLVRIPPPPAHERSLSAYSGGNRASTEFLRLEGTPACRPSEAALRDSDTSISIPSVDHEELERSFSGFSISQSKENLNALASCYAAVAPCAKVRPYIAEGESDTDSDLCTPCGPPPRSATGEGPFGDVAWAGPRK
KCNQ2 pot baseline – second read-out of KCNQ2 pot, no call of its own (marks repeat the call); B-score; compound at 10 µM; measured here: initial fluorescence intensity artifact check;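 brightness before thallium and not channel activity; 0 = typical well and far values either way flag optical interference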
Starred values were filed as active, the others as inactive. This is a subset. The share of hits here may be higher or lower than overall.

SMILES | KCNQ2 pot | KCNQ2 pot baseline
CC(C)NC(=O)CCCC(=O)NC(C)C | 0.26 | -0.82
O=C(NCC1CCCCC1)c1ccco1 | 0.45 | 1.43
C/C(=N\Nc1nc2ccccc2[nH]1)c1ccccn1 | 2.1 | -0.76
CN(C)CCCN(C(=O)CCSc1ccccc1)c1nc2cc3c(cc2s1)OCO3 | 0.02 | -0.48
C=CCNC(=O)CCCOc1ccc(C)cc1 | 0.9 | -0.37
CN(C)c1ccc(Nc2nc(N)c3ccccc3n2)cc1 | 1.52 | -0.36
Cc1ccc(CNC(=O)CNC(=O)c2ccc(Br)o2)cc1 | 0.81 | 0.98
O=C(O)CSc1c[nH]c2ccccc12 | 0.08 | -0.46
COc1ccc(S(=O)(=O)N2CCOCC2)cc1NC(=O)CCc1c[nH]c2ccccc12 | 0.51 | -1.06
CC1=CC=CN2C1=NC(=O)CC2(C)C(=O)N(CC(=O)NC1CCCC1)c1ccccc1C (centres undefined) | 0.85 | 0.45
CC(C)Sc1nnc2n(CCc3ccccc3)c(=O)c3c4c(sc3n12)COC(C)(C)C4 | 0.35 | -0.83
Cc1cc2c(cc1S(=O)(=O)NCCc1ccccc1)NC(=O)CO2 | 1.77 | -0.87
Cc1csc(SCC(=O)Nc2nnc(C)s2)n1 | 2.15 | 0
Cc1ccc2c(c1)N(CCCC(=O)NCCC1=CCCCC1)C(=O)CO2 | 0.79 | -1.19
Nc1ccc2nc(C3CCCCC3)[nH]c2c1 | 0.5 | -0.01
COCc1ccc(C(=O)Nc2ccc(C(=O)O)cc2)o1 | 0.04 | 0.33
Cc1c2c(n3c(nc4ccccc43)c1C#N)N(CCN(C)C)CC2 | 2.41 | -0.81
Cc1ccc(CNC(=O)CSc2nc3ccsc3c(=O)n2Cc2ccccn2)cc1 | 0.17 | 0.72
Cc1cc2[nH]c(=O)c(=O)[nH]c2cc1S(=O)(=O)N1CCN(c2cccc(Cl)c2)CC1 | 1.44 | 0
COC(=O)C1(CC2CC(c3ccncc3)=NO2)CCN(C(=O)OC(C)(C)C)CC1 (centres undefined) | 1 | -0.78

Grouped by structure, the entries above with an NH in an aromatic ring.
SMILES | KCNQ2 pot | KCNQ2 pot baseline
C/C(=N\Nc1nc2ccccc2[nH]1)c1ccccn1 | 2.1 | -0.76
O=C(O)CSc1c[nH]c2ccccc12 | 0.08 | -0.46
COc1ccc(S(=O)(=O)N2CCOCC2)cc1NC(=O)CCc1c[nH]c2ccccc12 | 0.51 | -1.06
Nc1ccc2nc(C3CCCCC3)[nH]c2c1 | 0.5 | -0.01
Cc1cc2[nH]c(=O)c(=O)[nH]c2cc1S(=O)(=O)N1CCN(c2cccc(Cl)c2)CC1 | 1.44 | 0

Other results:
SMILES | KCNQ2 pot | KCNQ2 pot baseline
CC(c1ccon1)N(C)Cc1cn(C)nc1-c1ccc2c(c1)OCCO2 (centres undefined) | 0.01 | 0.11
CCCn1c(SCC(=O)NCc2cccs2)nc2c1c(=O)n(C)c(=O)n2C | 1.01 | -2.23
COCC(=O)Nc1ccc(-c2cn3cccnc3n2)cc1 | 0.3 | -1.12
CC(C)[C@H](NC(N)=O)C(=O)Nc1ccc2c(c1)CCC2 | 0.14 | 1.46
CS(=O)(=O)N1N=C(c2ccc(Cl)cc2)CC1c1cccs1 (centres undefined) | 2.74 | -0.25
CCOC(=O)c1sc(S(C)(=O)=O)c2c1CCc1conc1-2 | 0.9 | -0.78
COc1ccc(C2NC(=O)NC(O)(C(F)(F)F)C2C(=O)c2ccccc2)cc1OC (centres undefined) | 0.62 | -0.8
Cc1ccnn1CC(=O)N/N=C/c1cccs1 | 0.45 | 0.46
CCc1c(C2(O)CCCCC2)[nH]c2c(C(=O)OC)cc(Cl)cc12 | 0.3 | -0.79
CCCCn1nnc(NC(=O)c2cc3ccccc3o2)n1 | 1.26 | -0.36
CC(=O)NC(CCS(C)(=O)=O)C(=O)Nc1nccs1 (centres undefined) | 0.12 | -0.48
O=C(CCCC(=O)N(CC(=O)NC1CCCC1)Cc1ccccc1)Nc1ccccn1 | 0.14 | -0.61
O=C(CSc1nncc(=O)[nH]1)Nc1cccc([N+](=O)[O-])c1 | 0.07 | -0.53
Cc1cccc(NC(=O)C2CCCC2)c1 | 0.31 | 2.2
CSc1ccc(/C=N\NC(=O)CNc2ccc(C)cc2)cc1 | 0.02 | -0.17
NC(=O)c1cnccn1 | 1 | 1.65
O=C(NNS(=O)(=O)c1ccc(F)cc1)c1ccc([N+](=O)[O-])cc1Cl | 0.76 | 0.01
CC(=O)Oc1ccc2oc(/C=C/N(C)C)c([N+](=O)[O-])c2c1 | 1.06 | 5.54
CCOc1ccc(NC(=O)Cc2c(C(=O)O)n(C)c3ccccc23)cc1 | 0.26 | -0.73
CCc1noc(C)c1C(=O)NNC(=O)COc1ccc(C)cc1 | 1.27 | -0.81
Cc1oc2ccc(OCc3c(F)cccc3Cl)cc2c1C(=O)O | 0.76 | -0.03
CC(C)S(=O)(=O)c1cnc(N2CCOCC2)nc1N | 0.73 | -0.57
Cc1ccc(Nc2nc(N)nc(CSc3nnc(-c4ccncc4)o3)n2)cc1 | 0.03 | -0.12
Cn1c(COc2ccc(Cl)cc2)nnc1SCC(=O)Nc1ccc2c(c1)CCC2 | 0.48 | -0.32
Nc1c(Cl)c(Cl)nc(C(=O)N/N=C/c2cccnc2)c1Cl | 0.66 | 0.89
CCS(=O)(=O)N1CCC(C(=O)NC2CCCCCCC2)CC1 | 0.55 | -1.38
CN(C)/C(=N\S(=O)(=O)c1ccc(Br)cc1)c1ccccc1 | 1.31 | 0.66
COc1ccccc1C(=O)NC1CCN(C(=O)Nc2ccc(C)cc2)CC1 | 1.46 | -2
FC(F)(F)c1cnc(N/N=C/c2ccncc2)c(Cl)c1 | 0.19 | -1.93
O=C1CC(c2ccccc2)CC2=C1C=Nc1ccccc1N2 (centres undefined) | 0.99 | -0.98

Part of the list above, with each value named.
CCS(=O)(=O)N1CCC(C(=O)NC2CCCCCCC2)CC1
  KCNQ2 pot: 0.55	KCNQ2 pot baseline: -1.38
Cc1oc2ccc(OCc3c(F)cccc3Cl)cc2c1C(=O)O
  KCNQ2 pot: 0.76	KCNQ2 pot baseline: -0.03
Cn1c(COc2ccc(Cl)cc2)nnc1SCC(=O)Nc1ccc2c(c1)CCC2
  KCNQ2 pot: 0.48	KCNQ2 pot baseline: -0.32

The results go on.
SMILES | KCNQ2 pot | KCNQ2 pot baseline
C=CCn1c(Cc2ccc(OC)cc2)nnc1SCC(N)=O | 0.1 | 0.1
N#CCCN(C(=O)COC(=O)c1cc(S(=O)(=O)N2CCOCC2)ccc1Cl)c1ccc(F)cc1 | 0.05 | -0.68
NS(=O)(=O)c1ccc(CCNC(=O)c2ccc(-c3ccccc3)cc2)cc1 | 0.19 | 1.25
O=C1CNC(=O)/C1=C/c1ccc(Br)cc1 | 2.31 | -1.86
CC1CCN(c2ccc(-c3cccs3)nn2)CC1 | 0.83 | -0.07
COCCC(=O)N1CCC(Oc2ccc(C(=O)NCCn3cccn3)cc2)CC1 | 1.02 | 3.03
O=C(NNC(=S)NCc1ccccc1)c1cccnc1 | 0.6 | -2.2
C/C=C/c1ccc(OCC(=O)N2CCc3cc(OC)c(OC)cc3C2)c(OC)c1 | 1.13 | 0.5
O=C(O)c1cccc(N2C(=O)C3CC=CCC3C2=O)c1 (centres undefined) | 0.52 | -0.08
Oc1ccccc1-c1nc(N2CCCC2)c2ccccc2n1 | 1.29 | -0.03
CCC(CC)c1nnc(NC(=O)CC(C)c2ccccc2)s1 (centres undefined) | 0.33 | -0.84
CCCCCc1nc2c(=O)[nH]c3ccccc3c2o1 | 0.57 | 0.62
COC(=O)CC1C(=O)NCCN1C(=O)CSc1nc2cc(Cl)ccc2o1 (centres undefined) | 2.22 | -0.01
CCN(CC)S(=O)(=O)c1ccc2nc(NC(=O)c3cccs3)sc2c1 | 0.03 | -1.24
CC1=[N+](CC(=O)c2ccccc2)CCn2cccc21 | 1.03 | -0.52
CC(NS(=O)(=O)c1ccc(CCC(=O)NCc2cccnc2)cc1)c1ccccc1 (centres undefined) | 0.59 | -0.34
CCc1ccc(Nc2nnc(SCc3cc(=O)n4ccsc4n3)s2)cc1 | 0.02 | -0.56
Cc1ccc(Oc2cc(C#N)c(C#N)cc2-n2nnc3ccccc32)cc1C | 0.93 | 0.2
COc1ccc(N2CCCn3c2nc2c3c(=O)n(CCCc3ccccc3)c(=O)n2C)cc1 | 0.03 | 1.13
O=C(O)c1ccc(-c2nc3ccccc3s2)o1 | 0.03 | -1.8

Three entries from above, as labelled records.
CC(C)NC(=O)CCCC(=O)NC(C)C
  KCNQ2 pot: 0.26 | KCNQ2 pot baseline: -0.82

O=C(NCC1CCCCC1)c1ccco1
  KCNQ2 pot: 0.45 | KCNQ2 pot baseline: 1.43

C/C(=N\Nc1nc2ccccc2[nH]1)c1ccccn1
  KCNQ2 pot: 2.1 | KCNQ2 pot baseline: -0.76

Later entries
SMILES | KCNQ2 pot | KCNQ2 pot baseline
CC(C(=O)Nc1ccc(C(=O)O)cc1)N1C(=O)c2ccccc2C1=O (centres undefined) | 0.32 | -1.28
CN(C)c1ccc(-n2cccc2)cc1 | 0.36 | -0.49
CCOC(=O)N1CCC(N2C(=O)c3ccc(C(=O)Nc4cccc(OC)c4)cc3C2=O)CC1 | 0.94 | 1.4
O=C(c1ccc(Cl)c([N+](=O)[O-])c1)N1CCN(c2ccccn2)CC1 | 0.15 | -2.3
COc1cc(C2Nc3ccccc3C(=O)N2NS(C)(=O)=O)c([N+](=O)[O-])cc1OC (centres undefined) | 0.29 | -1.31
O=c1[nH]c(SCc2cccc([N+](=O)[O-])c2)nc2[nH]ncc12 | 0.06 | 2.14
O=c1ncn(-c2ccccc2C(F)(F)F)c2ncccc12 | 0.09 | -0.37
O=C(O)c1ccc(-c2nnn(Cc3ccccc3F)n2)cc1 | 0.37 | 2.12
Cc1ccc(N(C(C)C(=O)Nc2ccc(S(=O)(=O)N3CCOCC3)cc2)S(C)(=O)=O)cc1C (centres undefined) | 0.37 | 3.01
COc1ccccc1Oc1c(C)oc2c(CN(C)C)c(O)ccc2c1=O | 1.13 | -1.38
COCCn1c(SCC(=O)NC2CCCC2)nnc1-c1ccncc1 | 1.21 | -0.06
Cc1cc(C(=O)CCl)c(C)n1CCc1ccc(F)cc1 | 0.24 | 1.52
CCn1c(COc2cccc(C)c2)nnc1SCC(=O)Nc1cccc(C(=O)O)c1 | 0.2 | 1.68
COc1ccc(Cl)cc1NC(=O)CCCC(=O)c1ccccc1 | 0.2 | -0.11
NC(=O)CC(NC(=O)c1ccccc1)c1ccc(N2CCN(c3ccc(F)cc3)CC2)c([N+](=O)[O-])c1 (centres undefined) | 0.45 | 1.13
O=C(Oc1ccccc1)c1ccc2nccnc2c1 | 2.31 | -2.63
O=C1/C(=C/N(C(=O)c2ccco2)c2ccc(Br)cc2)Sc2ccccc21 | 1.91 | -0.69
Cc1cc(OCC(C)C)ccc1/C(O)=C1/C(=O)C(=O)N(Cc2cccnc2)C1c1ccncc1 (centres undefined) | 0.44 | 0
Cc1ccccc1-n1nc(C(=O)O)cc1-c1ccccc1 | 0.77 | 0.34
COc1ccc(C(=O)N/N=C/c2ccc(OC)c(COc3ccc(F)cc3F)c2)cc1 | 0.73 | -1.73
Cc1cc(=O)oc2cc(OCC(=O)Nc3ccc(CN4CCOCC4)cc3)c(Cl)cc12 | 0.69 | 0.03
O=C(Nc1nc2nccc(-c3ccccc3)n2n1)C(Cl)(Cl)Cl | 0.27 | 0.05
COCC1CCCCN1C(=O)c1cc(COc2ccc3ncccc3c2)on1 (centres undefined) | 0.83 | -0.11
Cc1ccc(C(=O)N/N=C2/NC(=O)CC(C(=O)Nc3ccccc3)S2)cc1 (centres undefined) | 0.74 | 0.07
O=c1ccc(Cl)n[nH]1 | 1.59 | -0.17
CC(C)c1ccc(N(CC(=O)Nc2ccc(S(=O)(=O)N3CCOCC3)cc2)S(C)(=O)=O)cc1 | 0.91 | -1.38
Cc1ccc(NC(=O)C2(NC(=O)c3cccc(N4C(=O)CSC4c4ccccc4)c3)CCCCC2)cc1 (centres undefined) | 0.02 | -0.08
Cc1ccc2nc(NS(=O)(=O)c3cn(C)nc3C)sc2c1 | 0.69 | 0.37
COc1ccccc1C(=O)NCC(=O)N/N=C/c1ccncc1 | 1.88 | 0
Cc1cccc(OCC(=O)Nc2cc(NC(=O)COc3cccc(C)c3)cc(C(=O)O)c2)c1 | 1.26 | 0.11
CCN(CC)S(=O)(=O)c1cc(C(=O)N2CCc3ccccc32)ccc1Cl | 0.02 | 0.43
Cn1ccnc1SCC(=O)Nc1ccc([N+](=O)[O-])cn1 | 2.15 | -1.49
COc1ccc(/C=C/C(=O)OCC(=O)Nc2cc(C(F)(F)F)ccc2Cl)cc1 | 0.03 | 2.7
NC(=O)[C@@H]1CCCCNc2c(F)cc([N+](=O)[O-])cc2C(=O)N[C@@H](CC(=O)O)C(=O)N[C@@H](CCC(=O)O)C(=O)N1 | 0.24 | -1.93
COc1ccccc1NC(=S)N(Cc1ccccc1)Cc1cccs1 | 0.19 | 1.22
O=C(Nc1cccc(-c2csc(Nc3ccc(Cl)cc3)n2)c1)c1cccc(C(F)(F)F)c1 | 0.53 | 0.74
CCn1c(CSc2nnc(C)n2-c2ccccc2)nc2cc(S(=O)(=O)N(C)C)ccc21 | 1.75 | -0.01
Fc1ccccc1OCCCCCCN1CCCC1 | 0.22 | 0.1
C/C(CCc1ccc2c(c1)OCO2)=N\NC(=O)c1ccccc1Cl | 1.29 | -0.16
Cn1c(=S)oc2ccccc21 | 1.46 | 0.06
O=C(NCCc1ccccc1)c1c[nH]c2c(F)cccc2c1=O | 0.01 | -0.11
Cc1csc(CN(C)C(=O)CC2C(=O)NCCN2CC(C)(C)C)n1 (centres undefined) | 0.34 | -0.53
COc1cc(NC(=S)NNC(=O)CC(C)C)c(OC)cc1Cl | 1.22 | 0.2
CCCCSCCCNC(=O)c1cn(CC)c2ccc(S(=O)(=O)N3CCOCC3)cc2c1=O | 0.08 | 1.18

Screening results from PubChem BioAssay.
